High-throughput results as filed in PubChem BioAssay.
nsP2pro inh: Primary qHTS for inhibitors of NSP2Pro chikungunya virus (CHIKV). Polyprotein P1234 (Chikungunya virus (strain S27-African prototype)), Q8JUX6. FRET peptide cleavage, nsP2pro, fluorescence 1 h. Potency, µM (titrated, usually from 24.9 µM), for inactives: at the top dose activity change, negative = inhibition, usual class: inhibitors. 31,000 tested, 1.1% active. AID 1964107, 2024; active means well fitted inhibition curve with a large enough effect; inconclusive means small, poorly fitted or top-dose-only effect; inactive means no such curve, though single readings can be large or run the other way; also: nearly all actives have a fitted effect of over 60% in size; a reference inhibitor and vehicle were the controls
* hit, by the source's call; i = inactive; ? = inconclusive; & = joins results of further samples; [ ] = another dose, or the depositor's remark. % is scaled to controls: 0 for no effect and ±100 for the full control effect; potency is read from the fitted curve at half-maximal effect.

SMILES	nsP2pro inh
CCN(CCCNC(=O)c1c(C)oc2ncn(CC(C)C)c(=O)c12)Cc1ccccc1	-16%
CC(=O)Nc1ccc(Cl)c(C(=O)N(C)Cc2sccc2C)c1	-5%
CCN(CC)CCCNC(=O)c1cnc(SC)nc1-c1ccccc1	-2%
Cn1cc(Cl)c(C2N=C(Nc3nc4ccccc4o3)NC3=C2C(=O)CCC3)n1 (stereo not drawn)	i
Cc1c(Cl)cccc1S(=O)(=O)Nc1nc(CC(=O)N2CCN(C)CC2)cs1	-12%
Cc1cc(-c2nnc3n2CCCCC3)c(C)n1-c1ccc([N+](=O)[O-])cc1	-12%
CCOC(=O)Cc1ccc(NC(=O)NC(C)c2c(-n3cccc3)sc(C)c2C)cc1 (stereo not drawn)	-15%
C=C1C(=O)OC2/C=C(\C)CC/C=C(\C)CC(OC(C)=O)C12 (stereo not drawn)	3%
COC[C@H]1NC(=O)CC[C@H]1C(=O)O	-7%
COc1ccc(Cn2nnc3c(=O)[nH]c(C4CCCN(C(=O)c5ccccc5Cl)C4)nc32)cc1OC (stereo not drawn)	-3%
Cc1ccc(OCC(=O)N2CCCC(CN3CCCC3)CC2)cc1 (stereo not drawn)	-3%
NC(=O)C1CCN(c2nc(-c3ccc(OC(F)(F)F)cc3)cs2)CC1	i
CCn1cc(C2=NOC(C(=O)Nc3c(C)n(C)n(-c4ccccc4)c3=O)C2)c(C)n1 (stereo not drawn)	-1%
CO/N=C(\C(=O)N[C@@H]1C(=O)N2C(C(=O)O)=C(CSc3cnns3)CS[C@H]12)c1csc(N)n1	-46%
O=C1NC(=NC2CCCC2)C2(CCN([S+](=O)([O-])c3cccc(C(F)(F)F)c3)C2)N1c1cccnc1 (stereo not drawn)	-13%
CCCOc1ccc(-c2cccc(NS(=O)(=O)c3ccc(CC)cc3)c2)nn1	-12%
CC(=O)OC/C(=C/C(=O)O)CC[C@@H]1C(C)=CC(=O)[C@@H]2C(C)(C)CCC[C@@]12C	?
COc1c2c(c(C)c3c1C(=O)OC3)OC1(C)CC(O)C(C(C)(C)O)C(C)(CCC(=O)O)C1C2 (stereo not drawn)	-20%[10 µM]
COc1ccc(NC(=O)C2CCCN(c3cnn(Cc4ccccc4)c(=O)c3)C2)cc1OC (stereo not drawn)	4%
CCCCOc1ccc(C(=O)N2CCN(CCc3ccncc3)CC2)cc1	?
CCOc1cccc(NC(=O)c2ccc(N3CCCC3)c(C(F)(F)F)c2)c1	28%
CCOc1ccc(NC(=O)CCSc2nc(-c3ccc4c(c3)OCO4)cc(C(F)(F)F)n2)cc1	-23%
OCC(O)C(O)CO (stereo not drawn)	?
O=C(CCC(=O)N1CC2CCCN2c2ccccc21)NCc1ccccc1 (stereo not drawn)	-19%
CC(C)c1ccc(C(O)Cn2ccn3nc(-c4ccc(F)cc4)cc3c2=O)cc1 (stereo not drawn)	3%

Reprinted from the part before: 6 compounds, followed by the next part.
SMILES	nsP2pro inh
CCCCOc1ccc(C(=O)N2CCN(CCc3ccncc3)CC2)cc1	?
CCOc1cccc(NC(=O)c2ccc(N3CCCC3)c(C(F)(F)F)c2)c1	28%
CCOc1ccc(NC(=O)CCSc2nc(-c3ccc4c(c3)OCO4)cc(C(F)(F)F)n2)cc1	-23%
OCC(O)C(O)CO (stereo not drawn)	?
O=C(CCC(=O)N1CC2CCCN2c2ccccc21)NCc1ccccc1 (stereo not drawn)	-19%
CC(C)c1ccc(C(O)Cn2ccn3nc(-c4ccc(F)cc4)cc3c2=O)cc1 (stereo not drawn)	3%
CCCCNC(=O)N1CC(C(=O)NCc2ccco2)CC(c2ccc(OC)c(OC)c2)C1 (stereo not drawn)	-16%
CC(C)c1ccc(NC(=O)c2ccc(F)c(S(=O)(=O)N3CCCCCC3)c2)cc1	-14%
COc1cc(C2c3c(oc4cc(C)c(C)cc4c3=O)C(=O)N2CCCN2CCOCC2)ccc1O (stereo not drawn)	-32%
Cc1ccc(-c2nc3ccccn3c2Nc2ccc3c(c2)OCCO3)o1	-10%
Cc1nc(CN2CCOc3cc([S+](=O)([O-])N(C)C)ccc3C2)cs1	i
O=C(NCC1(Cn2cccn2)CC1)c1ccc(C2CCNC2)cc1 (stereo not drawn)	-12%
O=c1c2cc3c(cc2n(Cc2cccc(F)c2)c(=O)n1Cc1nc(-c2ccccc2)no1)OCO3	-19%
CC(=O)c1ccc(N2CCN(S(=O)(=O)c3ccc4[nH]c(=O)[nH]c4c3)CC2)cc1	4%
COc1ccccc1CNC(=O)c1oc2c(c1C)-c1nn(Cc3ccc(Cl)cc3)cc1CC2	-22%
CCOc1ccc(CCN(C)C(=O)c2cc3sccc3n2Cc2ccccc2)cc1OCC	4%
CCN(CCCNC(=O)Cn1ncc2c([nH]c3ccc(C)cc32)c1=O)Cc1ccccc1	-14%
Cc1nc([C@@H]2CN(S(=O)(=O)c3ccc4c(c3)CCCC4)C[C@H]2C(N)=O)n[nH]1	-8%
Cc1ccc(C(=O)Nc2ccccc2)cc1S(=O)(=O)N1CCCC1	-5%
O=C(c1cccnc1)N1CC[C@H](c2nc3ccccc3o2)C1	1%[39.2 µM]
CCOc1ccc(CCNC(=O)CCCn2c(=O)c3cccn3c3ccccc32)cc1	-6%
CC1CCCC(C)N1C(=O)c1ccc2nc(-c3cccnc3)oc2c1 (stereo not drawn)	3%[39.2 µM]
O=C(CC1C(=O)NCCN1Cc1cccc(Oc2ccccc2)c1)NCc1ccoc1 (stereo not drawn)	?
CC(C)N1CCN(C(=O)CC2=C3CCCCC3NC2=O)CC1 (stereo not drawn)	4%
COc1ccc(C2=C(C)C(N3CCC(C(=O)NCc4ccco4)CC3)=NS2(=O)=O)cc1	-30%
CC(C)n1nccc1-c1ncccc1COc1cccc(O)c1C=O	-20%
Cc1cc(C)c(Cn2c(C(O)c3ccccc3)nc3ccccc32)c(C)c1 (stereo not drawn)	-10%
C[N+]12CCC(CC1)C(OC(=O)C(O)(c1ccccc1)c1ccccc1)C2 (stereo not drawn)	-6%
COc1ccc(CN2C(=Nc3ccc(Cl)cc3)S[C@H]3[C@@H]2[C@@H](O)[C@H](O)C[C@@H]3C(N)=O)cc1	?
C[C@H]1CNCCCN1S(=O)(=O)c1cccc2cncc(F)c12	-5%
CN1CCN(C2=Nc3ccccc3Nc3ccc(OS(=O)(=O)C(F)(F)F)cc32)CC1	3%
(cont.)
SMILES	nsP2pro inh
CCc1ccc(NC(=O)C(NS(=O)(=O)c2cccc3nsnc23)c2ccccc2)cc1 (stereo not drawn)	-29%
CN1CCN(c2cc(-c3nc(Nc4ccc(F)c(F)c4)c4ccccc4n3)ccn2)CC1	3%
COc1cccc(CSc2nc3ccccc3c3nc(CCn4c(C)nc5ccccc54)nn23)c1	-13%
CCN1CCC(n2cc(CNc3cc(Cl)c4ncc(C#N)c(Nc5ccc(F)c(Cl)c5)c4c3)nn2)CC1	102%[activator]
O=C(OC1C=C(CO)C2C(OC3OC(CO)C(O)C(O)C3O)OC=CC12)c1ccc(O)cc1 (stereo not drawn)	8%[10 µM]
CCN(CC)C(=O)C1=CC(c2ccc3c(c2)OCO3)=NS(=O)(=O)N1C	-10%
CCOc1ccc(C(c2c(C)[nH]n(-c3ccccc3)c2=O)c2c(C)[nH]n(-c3ccccc3)c2=O)cc1OC	-13%
O=C(CCCCSc1nnc(-c2cccc3ccccc23)o1)Oc1ccc(F)cc1	i
OC1(CN2CCN(CCc3ccccn3)CC2)CCCNC1 (stereo not drawn)	0%
CCOc1ccc(CCNC(=O)c2ccc(-c3nc(CSc4ccccc4)c(C)o3)cc2)cc1	-17%
O=C1CCc2cc(S(=O)(=O)Nc3ccc(F)c(Cl)c3)ccc2N1	-1%
Cc1cc2nc(-c3ccc(OCc4ccc(F)cc4)cc3)cc(C(F)(F)F)n2n1	-21%
Fc1ccc(-c2cccc(CN3CC4CCC(C3)N4c3ccc(C(F)(F)F)cc3)c2)c(F)c1	2%
CC(=O)OCCC(C)CCC1C(C)(O)CCC2C(C)(C)CCCC21C (stereo not drawn)	2%
COc1ccccc1N1CCN(CC(O)COc2cccc3ccccc23)CC1 (stereo not drawn)	10%
C[C@@H]1CN(C(=O)c2ccc3c(c2)N(C)C(=O)CO3)C[C@@]1(O)C1CCC1	i
CC(C)(C)N=Cc1c(-c2ccccc2)no[n+]1[O-]	i
CCc1ccccc1NC(=O)C(=O)c1cc(C)n(-c2ccccc2F)c1C	-21%
OCC1CN(c2ncccn2)CC12CCNCC2 (stereo not drawn)	4%
COc1ccc(OC)c(NC(=O)c2ccccc2OC(C)=O)c1	i
CC(C)(C)n1nc(-c2cccc3ccccc23)c2c(N)ncnc21	7%
Cc1cc(/C=C\c2ccc3cc(N(C)C)ccc3[n+]2C)c(C)n1-c1ccccc1	?
CC1=C(c2ccc(F)cc2)S(=O)(=O)NC1=NCc1ccccc1F	-14%
CCCCNC(=O)Cn1c(=O)cc(C)c2c(C)nn(-c3cccc(Cl)c3C)c21	-28%
Cc1ccc(CNc2nc3c(c(=O)n(C)c(=O)n3C)n2Cc2ccc(Cl)cc2)cc1	-16%
(more compounds)
SMILES	nsP2pro inh
Cc1ccc([S+](=O)([O-])N2CCCC(N3C(=O)c4c(c(C)nn4-c4ccccc4)C3C)C2)cc1 (stereo not drawn)	-2%
COc1ccccc1CCNC(=O)c1cccn1-c1nnc(N2CCCCC2)s1	-26%
C=CCNc1ncnc2ccc(Br)cc12	1%
CC(NC(=O)c1ccc(Nc2nc3ccccc3n3nnnc23)cc1)c1ccccc1 (stereo not drawn)	-18%
OCc1ccc(Cl)cc1Cl	0%&-13%
O=C(O)c1ccc(O)c2ncc(-c3n[nH]nc3-c3ccccc3)cc12	i
CC(=O)N1CCOc2ccc(CCC(=O)N3CCN(C4CCCCC4)CC3)cc2C1	i
CCN(CC)C(=O)CSc1nc2cc3c(cc2c(=O)n1Cc1ccc(C(=O)NCCc2ccc(OC)c(OC)c2)cc1)OCO3	25%
CCC1CN2CCC3(C(=O)Nc4cccc(O)c43)C2CC1/C(=C/OC)C(=O)OC (stereo not drawn)	8%[10 µM]
COc1cccc(CN2C[C@@H](CO)[C@H](NC(=O)C3CC3)C2)n1	-1%
CSc1ccc(CCNc2ncnc3onc(C)c23)cc1	8%
C=C1CC2C3(C)C=CC(=O)OC(C)(C)C3CC(OC(C)=O)C2(C)C2C(=O)OC(C)C(=O)C12C (stereo not drawn)	-7%[10 µM]
CNc1oc(-c2cccc3cnccc23)nc1C#N	3%
CC(=O)Oc1c(C)cc(OCC(O)CNC(C)C)c(C)c1C (stereo not drawn)	-12%[39.2 µM]
C[C@@H]1O[C@@H](OC[C@H]2O[C@@H](OCCc3ccccc3)[C@H](O)[C@@H](O)[C@@H]2O)[C@H](O)[C@H](O)[C@H]1O	26%[10 µM]
CCOC(=O)c1ccc(NC(=O)CCc2c(C)nc3c(c(C)nn3C(C)(C)C)c2C)cc1	-11%
O=C(NC1CCCC1)c1cc(-c2cccc(C(F)(F)F)c2)c2cccn2n1	-3%
O=C(COc1ccccc1Cl)N1CCN(CCc2ccncc2)CC1	-25%
O=C(O)[C@H](CC(=O)N1C[C@H]2CCCC[C@H]2C1)Cc1ccccc1	17%
Cc1ccc(-c2nn(-c3ccc(F)cc3F)c3c2cnc2c(F)cccc23)cc1	-18%
Cc1ccc(CNS(=O)(=O)c2cc3[nH]c(=O)c(=O)[nH]c3cc2C)cc1	-21%
O=c1c2nc(Nc3ccc(C(F)(F)F)cc3)ccc2ncn1Cc1ccccn1	i
CCC(C)NC(=O)Cn1c(=O)n(-c2ccc(Cl)cc2)c(=O)c2c3c(sc21)CCCC3 (stereo not drawn)	-13%
CN1C[C@H](NCc2nccn2C)CCC[C@@H](C(=O)NC2CCOCC2)CC1=O	0%[39.2 µM]
O=C(O)c1ccccc1OC1=NS(=O)(=O)c2ccccc21	3%

Arranged by length of the SMILES (low to high): some entries from above.
SMILES	nsP2pro inh
CSc1ccc(CCNc2ncnc3onc(C)c23)cc1	8%
COc1ccccc1CCNC(=O)c1cccn1-c1nnc(N2CCCCC2)s1	-26%
COc1cccc(CN2C[C@@H](CO)[C@H](NC(=O)C3CC3)C2)n1	-1%
CC(NC(=O)c1ccc(Nc2nc3ccccc3n3nnnc23)cc1)c1ccccc1 (stereo not drawn)	-18%
CN1C[C@H](NCc2nccn2C)CCC[C@@H](C(=O)NC2CCOCC2)CC1=O	0%[39.2 µM]
CCC1CN2CCC3(C(=O)Nc4cccc(O)c43)C2CC1/C(=C/OC)C(=O)OC (stereo not drawn)	8%[10 µM]

Further compounds
SMILES	nsP2pro inh
CN(C)C(=O)C(CCN1CCC(O)(c2ccc(Cl)cc2)CC1)(c1ccccc1)c1ccccc1	-2%&-8%
CC1CCN(CCNC(=O)c2cc3cn(C(C)C)cc3s2)CC1	5%
CCCCN(CCCNC(=S)NCCCc1cnc[nH]1)c1ccc(Br)cn1	i
C/C=C(/C)C(=O)O[C@H]1C=C(C)C[C@H](OC(=O)c2ccc(O)cc2)C2[C@](O)(C(C)C)CC[C@@]21C (stereo partly drawn)	-3%[10 µM]
CC(C)OC(=O)OCOP(=O)(CO[C@H](C)Cn1cnc2c(N)ncnc21)OCOC(=O)OC(C)C	-9%
O=C(NCc1ccon1)C1CCCN(C2CCN(c3nc4ccccc4o3)CC2)C1 (stereo not drawn)	i
COc1ccc(C(=O)N(Cc2cccs2)Cc2cccs2)c(O)c1	-5%
CCC(C)C(N)C(=O)NCCN1CCOCC1 (stereo not drawn)	3%

Structures listed so far containing bromine, in the order listed:
SMILES	nsP2pro inh
C=CCNc1ncnc2ccc(Br)cc12	1%
CCCCN(CCCNC(=S)NCCCc1cnc[nH]1)c1ccc(Br)cn1	i

An excerpt, so the mix of outcomes need not match the whole.
